# MT1-MMP act inh: blocks activation of human MT1-MMP; P50281; hit rate 0.061% among 360,000; GFP/RFP ratio change, % at 20 µM; HT1080 RFP-PRO-GFP cells, GFP/RFP ratio fluorescence, overnight; percent of plate control window, DMSO zero;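 active means GFP/RFP ratio change of at least 30% with cell ATP level not reduced by more than half and red fluorescence within 50% of control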; further: strong numbers were not always called active
#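 Assay system: HT1080 RFP-PRO-GFP cells. Benchmarks: DMSO vehicle wells and RFP-L50D-GFP reporter cell wells. Times: overnight cell settling, then overnight compound exposure, 37 °C, 5% CO2. Compound: 20 µM single dose, 1% DMSO. Read-out basis: GFP/RFP fluorescence ratio.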
# HIV Env fusion: inhibitors of HIV Env-mediated cell fusion; HeLa-JRFL Env/CEM21 cell fusion, luciferase; inhibition, % at 12.3 µM; hit rate 1.1% among 360,000;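 active means mean replicate inhibition score of at least 50 and every replicate individually at or above 50; inconclusive means only one of the two criteria met; inactive means mean below 50 and not all replicates reaching 50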;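 further: 0% = plate neutral controls and 100% = maraviroc near 300 nM; one replicate is shown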
# MT1-MMP act inh RFP: also measured in MT1-MMP act inh; calls as there; RFP signal change, %; measured here: RFP expression control read;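 0 = vehicle wells; hits needed this value within 50% of zero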
# * hit, by the source's call; ? = inconclusive; & = joins results of further samples; [ ] = dose if it differs, or a comment. These rows are one share of the data (hit frequency here may not be typical).
compound,MT1-MMP act inh,MT1-MMP act inh RFP,HIV Env fusion
COc1cccc(Cn2cnc(-c3ccccc3OC)c2-c2ccco2)c1,1,-1,-28
COc1cccc(COC(=O)Nc2ccccc2)c1OC,0,-3,-59
Cc1cc2nc(C3CCCCC3)c(Cc3ccccc3C(F)(F)F)n2c(C)c1Br,-9,-13,6
COC(=O)C1(Cc2ccc3c(c2)CCC3)Cc2ccc3c(c2C1=O)CCC3 (stereo not drawn),-4,-14,-66
CC(=O)[C@H]1CC[C@@H](c2ccccc2)N(S(=O)(=O)c2ccc(C)cc2)C1,0,0,20
Cn1cc([C@]2(O)C(=O)Nc3c(F)cccc32)c2ccccc21,3,5,15
COc1ccc([C@H]2C[C@@H](n3cc(-c4ccc(F)cc4)nn3)[C@H](O)CN2C(=O)c2cccs2)cc1,4,-2,11
COc1ccc(-c2c(C(=O)c3ccccc3)[nH]c(N)c2C(=O)c2ccc(Br)cc2)cc1OC,3,-4,6
COC(=O)[C@]12CCCCC=C1N(Cc1ccccc1)C(=O)[C@H](CC(=O)NCc1cccc3ccccc13)C2,2,-4,-110
O=C1NC[C@@H](CCCCN2C[C@H](Cc3ccc(O)cc3)N(CC3CCCCC3)C(=O)C2=O)N(CCC2CCCCC2)C1=O,7,4,-104
C[C@H]1O[C@H](C2CCCC2)CC2=C1C(=O)OC(C)(C)O2,5,5,-20
O=C(NCCc1c[nH]c2ccccc12)OC1CC2CC1[C@H]1CCCCN1C2=O (stereo partly drawn),-2,1,-40
CC(C)(C)NC(=O)C1c2ccccc2OCC(=O)N1Cc1ccccc1 (stereo not drawn),2,4,-14
S=C(c1ccco1)N1CCOCC1,0,-1,-37
CCc1cc(C(=O)NCC(c2ccc(OC)cc2)N2CCOCC2)sc1C (stereo not drawn),3,1,-3
COc1ccc(S(=O)(=O)N2CCC[C@H]2C(=O)N2CCC[C@H]2C(=O)NCc2ccncc2)cc1C,5,9,7
CC1=C(C(=O)N2CCCCCC2)CC(CC(=O)NCC2CCCCC2)C(=O)N1Cc1ccc(F)cc1 (stereo not drawn),16,-4,-4
CC(=NNC(=S)N(Cc1ccccn1)Cc1ccccn1)c1cnccn1,9,-4,18
Cc1cccc(C)c1NC(=O)C(c1ccc(C(F)(F)F)cc1)n1c(=O)c(-c2cc3ccccc3[nH]2)nc2ccccc21 (stereo not drawn),-15,-17,1
COc1ccc(C=NN=C2c3ccccc3-c3ccccc32)cc1OC,4,1,-8
S=c1c2[nH]cnc2ncn1CCSc1ncnc2nc[nH]c12,3,3,-7
Cc1cc2nc(-c3ccc(C#N)cc3)c(Cc3ccsc3)n2c(C)c1Br,-1,4,-27
CCC(c1nc2ccccc2[nH]1)n1c(-c2cccnc2)nc2ccccc21 (stereo not drawn),6,7,-37
COC1OC(c2ccccc2)=C(c2cnc(N)nc2)c2ccc(F)cc21 (stereo not drawn),-1,1,26
CCCCCCCCCCCCCCCC[N+](C)(C)CCl,-8,-18,-16
Cn1c(=O)[nH]c2c(c1=O)CCO2,0,0,11
CCC(C(=O)NC1CCCC1)n1c(C2CC2)nc2ccccc21 (stereo not drawn),1,5,-5
C[n+]1c(-c2ccccc2)cc2c(=Cc3ccc([N+](=O)[O-])cc3)c3ccccc3n21,2,-4,-369
Cc1ccc(S(=O)(=O)N2CCCCC2)cc1NC(=O)c1nn(C)c(=O)c2ccccc12,4,1,66*
CCCNC(=O)C1(C)CCCN(Cc2cccc3ccccc23)C1 (stereo not drawn),0,-3,26

# One compound at a time, as listed above. Order of screens: MT1-MMP act inh	MT1-MMP act inh RFP	HIV Env fusion
# Results for COc1ccc(-c2c(C(=O)c3ccccc3)[nH]c(N)c2C(=O)c2ccc(Br)cc2)cc1OC → 3	-4	6
# Results for COc1cccc(COC(=O)Nc2ccccc2)c1OC → 0	-3	-59
# Results for CC1=C(C(=O)N2CCCCCC2)CC(CC(=O)NCC2CCCCC2)C(=O)N1Cc1ccc(F)cc1 (stereo not drawn) → 16	-4	-4
# Results for Cc1ccc(S(=O)(=O)N2CCCCC2)cc1NC(=O)c1nn(C)c(=O)c2ccccc12 → 4	1	66*

# Following part.
compound,MT1-MMP act inh,MT1-MMP act inh RFP,HIV Env fusion
CCOC(=O)[C@]12CCC=C1N(Cc1cccc3ccccc13)C(=O)[C@H](CC(=O)N1CCCCC1)C2,-4,-9,-3
O=C1NCC(c2ccccc2)(c2ccccc2)C(=O)N1,2,4,-19
C=CCC[C@H](CCCCC)OC(=O)/C=C/[C@@H](O)[C@H](O)C[C@H](O)CC=C,2,-7,10
O=S(=O)(Cc1ccccc1)C(CCCc1ccccc1)S(=O)(=O)Cc1ccccc1,2,-3,14
CO[C@@H]1CN(C)C(=O)c2cc(NC(=O)C3CC3)ccc2OC[C@H](C)N(C(=O)CN2CCOCC2)C[C@@H]1C,0,2,-10[16.7 µM]
CC(C)c1cccc(C(C)C)c1NC(=O)OC1CCCCC1,1,-4,-1
COc1ccccc1C(=Cc1ccc([N+](=O)[O-])cc1)C(=O)O,4,2,7
COC(=O)CCCn1cc(CN(C)C2CN(Cc3cn(CCCC(=O)OC)nn3)S(=O)(=O)C2)nn1 (stereo not drawn),0,2,-13
COC(=O)[C@@]1(Cc2ccc(OC)cc2)[C@H]2c3cc(C(=O)N4CCCC4)n(Cc4ccccc4)c3C[C@H]2CN1C(=O)c1ccccc1,-21,-24,-121
CSCC[C@H](NC(=O)c1cccc(S(=O)(=O)N2CCCCC2)c1)c1nc2ccccc2[nH]1,3,-2,6
Cc1ccc(S(=O)(=O)N2[C@@H](CO)CO[C@H]2CC(=O)OCc2ccccc2)cc1,9,7,-1
O=C1NC[C@@H](Cc2cccc3ccccc23)N(CCc2cccc(F)c2)C1=O,12,3,1
CCc1c(-c2cccc(Br)c2)ncn1Cc1cccc(-c2ccccc2)c1,-1,-12,6
CC(C)(C)c1ccc(S(=O)(=O)N2CCN(C(=O)c3ccc4c(c3)C(=O)N(Cc3ccncc3)C4=O)CC2)cc1,-1,-5,-2
CNC(=O)c1cc(NC(=O)N(CCC#N)CCN(C(=O)NC(Cc2ccccc2)C(=O)NC(CC(C)C)C(=O)NC)c2ccccc2)ccc1OC (stereo not drawn),-1,-2,-4
CC(=NNC(=S)N1CCCCCC1)c1cccc2cccnc12,2,1,21
O=C1c2ccccc2C(=O)C1C(=O)C1CC1,6,7,-16
N#Cc1cccnc1N1CCN(C(C(=O)NC2CCCC2)c2ccc(F)cc2)CC1 (stereo not drawn),1,3,6
CC1=C(C(=O)N2CCCCCC2)CC(CC(=O)NC(c2ccccc2)c2ccccc2)C(=O)N1CCC1=CCCCC1 (stereo not drawn),-15,-29,-49
CCCCN1C(=O)C(=O)NC[C@@H]1CC1CCCCC1,5,0,-5
COc1ccccc1-c1noc2c1C(=O)N(C(=O)OC(C)(C)C)CC2,0,2,31
Cc1cnc(CNc2nc3cc(-c4ccccc4C)sc3c(=O)n2C)cn1,3,-3,1
CCCCc1c(-c2cccc(Br)c2)ncn1CCc1ccccc1OC,-8,-30,7
COc1cc(C(=O)c2ccccc2C(=O)O)c(OC)c2c1CCCC2,-5,2,-6
Cc1cc(O)cc2c1C1CCC3(C)C(O)CCC3C1C=C2 (stereo not drawn),4,-6,24
COCCNC(=O)C1CCCN(C(=O)c2nc(C)oc2C)CC1 (stereo not drawn),8,14,44
OC[C@@H]1CN(Cc2ccc3c(c2)OCO3)C[C@H](n2cnc3c(N4CCN(c5ccccc5)CC4)ncnc32)O1,-5,-27,-8
COc1cccc(-c2nc(-c3ccccc3)c3ccc(Cl)cc3n2)c1,1,-1,5
O=C1OC(c2ccccc2)Sc2ccccc21 (stereo not drawn),-2,-1,-8
N#Cc1ccc(C(=O)OCc2cccc(S(=O)(=O)N3CCOCC3)c2)cc1,-4,0,20

# Continued; the last 4 above are carried over.
compound,MT1-MMP act inh,MT1-MMP act inh RFP,HIV Env fusion
OC[C@@H]1CN(Cc2ccc3c(c2)OCO3)C[C@H](n2cnc3c(N4CCN(c5ccccc5)CC4)ncnc32)O1,-5,-27,-8
COc1cccc(-c2nc(-c3ccccc3)c3ccc(Cl)cc3n2)c1,1,-1,5
O=C1OC(c2ccccc2)Sc2ccccc21 (stereo not drawn),-2,-1,-8
N#Cc1ccc(C(=O)OCc2cccc(S(=O)(=O)N3CCOCC3)c2)cc1,-4,0,20
COC(=O)[C@]12CCCCC=C1N(CCc1ccc(OC)c(OC)c1)C(=O)[C@H](CC(=O)N1CCN(C(=O)C3CC3)CC1)C2,1,1,-29
CC(C)C[C@@H]1O[C@H](CCc2ccccc2)CC2=C1C(=O)OC(C)(C)O2,1&6,-8&-5,14
CC1(C)CC(Cc2ccc(C(F)(F)F)cn2)N(C(=O)OC(C)(C)C)C1 (stereo not drawn),2,8,0
CC1(C(=O)Nc2ccc3c(c2)OCCO3)CN(S(C)(=O)=O)CC(=O)N1Cc1ccco1 (stereo not drawn),10,6,?
O=C(NCC1CC1)c1cc2c(c(-c3cccc(-c4ccccc4F)c3)n1)[C@@H](CCO)N(C(=O)CC1CC1)C2,-1,-9,-34
O=C(CNC(=O)c1ccco1)OCc1ccccc1F,-2,-4,-12
Cc1ccc(COC[C@H](CC(C)C)N2CCN(C(=O)c3cccc(C(F)(F)F)c3)CCC2=O)cc1,-10,-15,2
CC(Sc1nncn1C)C(=O)NCCC1=CCCCC1 (stereo not drawn),4,5,9
Nc1ncnc2c(C3OC(CO)C(O)C3O)c[nH]c12 (stereo not drawn),-31,-18,95*
COC(=O)C[C@H]1C=C[C@@H](NS(=O)(=O)c2ccccc2)[C@@H](CO)O1,1,7,-13

# Next structures.
# Fields – MT1-MMP act inh	MT1-MMP act inh RFP	HIV Env fusion
- O=c1cn[nH]c2ccc(Br)cc12
  0	-4	-9
- O=C(c1cccs1)N1CCN(C(=O)c2cccs2)C1=S
  2	3	-10
- O=C(Nc1ccc(N2CCCCCC2)cc1)c1cccc(S(=O)(=O)N2CCOCC2)c1
  -4	-30	2
- CCCCCCCCN1C(=O)[C@H](CC(=O)NCc2ccccc2)C[C@@]2(C(=O)OCC)CCC=C12
  5	-2	18
- CC(C)(C)n1nnnc1C(c1ccccc1)N1CCN(c2ncccc2C(F)(F)F)CC1 (stereo not drawn)
  2&-13	-6&-19	-1&13
- COc1ccc2nc3cc([N+](=O)[O-])ccc3c(NNc3ccc([N+](=O)[O-])cc3)c2c1
  -2	-2	-4
- COc1cc(OC)cc(C(=O)NCC(=O)N2CC=C(c3ccccc3)CC2)c1
  -11	-11	-6
- Cc1cc(C)c(C#N)c(OCC2CCCO2)n1 (stereo not drawn)
  0	1	-7
- CCC(CC)C(=O)N(C)c1c(C)nc2c(OCc3ccc(C(F)(F)F)cc3)cccn12
  -1	-15	-5
- CC(=NNC(=S)N1CCCCC1)c1ccccn1
  -4	-5	34
- CCCCOCCCNC(=O)C[C@@H]1C[C@@]2(C(=O)OCC)CCCC=C2N(Cc2ccc(Cl)cc2Cl)C1=O
  -6	-8	2
- O=C1C=C(OCCF)CC(c2cccc(Cl)c2)O1 (stereo not drawn)
  0	3	7
- O=C1NC[C@H](CCCCN2C[C@H](Cc3ccc(O)cc3)N(CCc3ccc(O)cc3)C(=O)C2=O)N(CCc2ccc(O)cc2)C1=O
  3	7	15
- COC(=O)C[C@H]1CC[C@H](NC(=O)Nc2ccccc2)[C@@H](CO)O1
  -1	1	-6
- COC(=O)C[C@H]1C=C[C@H](NC(=O)Nc2ccccc2)[C@@H](CO)O1
  4	7	-3
- CC(C)N1CC2(CC(c3ccccc3F)=NO2)CN1C(=O)c1ccc(C(C)(C)C)cc1 (stereo not drawn)
  -3	-9	18
- CCOc1ccc(NS(=O)(=O)c2cc(C(=O)NCCN3CCOCC3)ccc2C)cc1
  -2	4	2
- O=C(Nc1cc(Cl)cc2c1-c1ccc(Cl)cc1C2O)C(Cl)Cl (stereo not drawn)
  3	-1	-19
- OCCC#Cc1ccc(N2C(c3ccsc3)=Cc3ccc(F)cc3C2c2c[nH]c3ccccc23)cc1 (stereo not drawn)
  -15	-4	-99
- COc1ccc(NC(=O)c2cc(-c3ccncc3)nc3ccccc23)c(OC)c1
  -4	-1	-3
- CN(Cc1cc(Cl)cc(Cl)c1)CC(C(=O)c1ccccc1)c1ccccc1 (stereo not drawn)
  5	-18	2
- COc1cc(C2c3cc4c(cc3OC(N3CCCC3)C2C)OCO4)cc(OC)c1O (stereo not drawn)
  -3	-6	-38
- COC(=O)[C@@]1(Sc2ccc(C)cc2)CC(=O)N(c2ccccc2)[C@@H]1c1ccccc1
  -12	-2	-33
- Cc1ccsc1C(=O)N1CCCC(C)(C(=O)O)C1 (stereo not drawn)
  7	10	19
- O=C(Nc1ccc(F)cc1)C(c1cc2ccccc2o1)N1CCN(c2ccncc2)CC1 (stereo not drawn)
  2	5	15
- COc1cc(OC)cc(C2=Cc3ccccc3C(CC(C)=O)N2c2ccc(C#CC3(N)CCCCC3)cc2)c1 (stereo not drawn)
  0	-2	-31
- Cc1cc(S(=O)(=O)N2CCN(CC(=O)N(C)Cc3ccccc3)CC2)ccc1Br
  -8	-4	-213
